Compound activity deposited in PubChem BioAssay by National Center for Advancing Translational Sciences (NCATS).
TRPV1 PAM: human TRPV1 potentiation. 320,000 compounds, 0.02% hits. TRPV1-expressing cells, Fluo-8 calcium influx, capsaicin EC20 potentiation; host cell line not named in the record; control for the full effect not named in the record. Q8NER1. potentiation, % at 8.33 µM. AID 540277; active means potentiation above 80%; inconclusive means 30% to 80%; inactive means below 30%; also: 0% is about no effect
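Cells expressing TRPV1 were dye-loaded with Fluo-8 and read kinetically: 10 s baseline, 3 min after compound (agonist portion), then 2 min after EC20 capsaicin (allosteric enhancer portion). Calcium-bound dye fluorescence at 480/520 nm.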
PINK1 expr mod: PINK1 expression modulation. PINK1 immunofluorescence, high-content cytometry, 24 h. Potency, µM (doses to about 76.6 µM), inactives show at the highest dose activation (PINK1 increase), most hits filed as activators. 410,000 compounds, 0.2% hits; active = well fitted activation curve with a large enough effect; inconclusive = small, poorly fitted or top-dose-only effect; inactive = flat fitted curve, though single readings scatter; cell line not stated here;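 also: potency is read from the fitted curve at half-maximal effect; % of control where 0% means no effect; nearly all actives have a fitted effect of over 65% in size; a mitochondrial uncoupler was the plate control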
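Decision-based qHTS: stable cells, 24 h exposure to five compound concentrations, CCCP as control. Fixed cells stained for PINK1 plus nuclear, mitochondrial and cell markers, cytometer read.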
D2 ag: human D2 receptor agonism in beta-arrestin assay; DiscoveRx PathHunter D2 beta-arrestin, luminescence, 90 min; 100% = 57 uM dopamine signal; activation, % (concentration not given with the values); 360,000 compounds, 0.084% hits; in the data active = activation above about 40%; inconclusive = about 15% to 40%; inactive = below about 15%; also: the text of the record calls up to 30% inactive
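Agonist mode: compounds alone added to overnight-plated D2 PathHunter cells for 90 min at 37 C, with 57 uM final dopamine (EC100) defining full response. Beta-arrestin recruitment detected by chemiluminescent reagent, read after 1 h at ambient temperature.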
D2 PAM: potentiates the human D2 dopamine receptor allosterically; P14416; DiscoveRx D2 beta-arrestin cells, luminescence, 90 min; 100% = 57 uM dopamine signal; potentiation, % (test concentration not listed); 360,000 compounds, 0.23% hits; active = potentiation of 50% or more; inconclusive = 30% to 50%; inactive = 30% or less;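 also: compound concentration not given in the record; tested on top of an EC20 dose of dopamine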
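PathHunter D2 cells, attached overnight at 37 deg C, received compound in DMSO plus dopamine at EC20 (50 nM final) for 90 min at 37 deg C. Beta-arrestin recruitment was read as luminescence after 1 h with detection reagent at ambient temperature.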
Six1-Eya2 inh: blocks human Six1 binding to Eya2 | Q15475+O00167 | AlphaScreen GST-Six1/His-Eya2 binding, biochemical; active compounds read low; control for the full effect not named in the record | activity change, % (no concentration beside the values) | 360,000 compounds, 0.56% hits | AID 651725; in the data active = activity change below about -65%; inconclusive = about -30% to -65%; inactive = above about -30%; also: % is scaled to controls: 0 for no effect and ±100 for the full control effect
Target sequence (O00167 whole entry, looked up): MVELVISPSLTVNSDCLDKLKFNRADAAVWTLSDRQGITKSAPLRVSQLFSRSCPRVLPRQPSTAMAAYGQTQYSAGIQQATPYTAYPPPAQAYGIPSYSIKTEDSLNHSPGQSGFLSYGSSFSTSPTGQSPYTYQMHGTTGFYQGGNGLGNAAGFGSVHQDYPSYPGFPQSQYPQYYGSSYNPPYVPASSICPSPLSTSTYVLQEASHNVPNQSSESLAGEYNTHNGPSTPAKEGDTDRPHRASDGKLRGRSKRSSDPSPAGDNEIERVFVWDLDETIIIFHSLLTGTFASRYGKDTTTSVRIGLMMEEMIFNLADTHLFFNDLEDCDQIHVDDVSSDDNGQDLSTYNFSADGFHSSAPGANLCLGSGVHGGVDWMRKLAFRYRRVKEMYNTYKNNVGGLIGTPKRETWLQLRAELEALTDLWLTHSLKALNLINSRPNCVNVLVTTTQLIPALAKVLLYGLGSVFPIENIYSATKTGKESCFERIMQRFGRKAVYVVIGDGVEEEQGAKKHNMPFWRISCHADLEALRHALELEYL
Target sequence (Q15475 whole entry, looked up): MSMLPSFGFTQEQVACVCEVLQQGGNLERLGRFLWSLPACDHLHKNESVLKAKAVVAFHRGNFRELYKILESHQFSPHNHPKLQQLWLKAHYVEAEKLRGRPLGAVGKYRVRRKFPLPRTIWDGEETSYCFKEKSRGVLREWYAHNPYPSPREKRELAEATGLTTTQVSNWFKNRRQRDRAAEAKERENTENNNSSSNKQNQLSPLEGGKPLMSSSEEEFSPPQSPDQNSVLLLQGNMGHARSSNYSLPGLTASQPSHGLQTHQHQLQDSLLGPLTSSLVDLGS
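Homogeneous AlphaScreen proximity assay pairing GST-Six1 with His-tagged Eya2 (added as 5X mix: 250 nM and 500 nM) in 50 mM Tris pH 8.0, 300 mM NaCl, 1 mM TCEP. Glutathione donor and nickel acceptor beads; 1 h, 37 °C, dark.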
CtBP-E1A blk: CtBP/E1A binding inhibition. AlphaScreen GST-E1A/His-CtBP binding, 1536-well; active compounds read low; control for the full effect not named in the record. activity change, % (test concentration not listed). 340,000 compounds, 0.49% hits. AID 651724; in the data active means activity change below about -65%; inconclusive means about -30% to -65%; inactive means above about -30%; also: % is scaled to controls: 0 for no effect and ±100 for the full control effect
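GST-E1A and His-tagged CtBP (125 nM each as 5X stock) were preincubated with pin-transferred compound for 2 h at 37 °C in the dark, then glutathione donor and nickel acceptor beads were added for 1 h before AlphaScreen reading.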
Sfp PPTase inh: Sfp phosphopantetheinyl transferase inhibition; 310,000 compounds, 3.5% hits; AID 1490; Q9F4F7; Biochemical Sfp PPTase activity, qHTS; Potency, µM, for inactives: max response, negative = inhibition, hits mostly inhibitors; active = well fitted inhibition curve with a large enough effect; inconclusive = small, poorly fitted or top-dose-only effect, or another doubt; inactive = no such curve, though single readings can be large or run the other way;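 also: the enzyme is Sfp with the accession as filed and its product quenches rhodamine fluorescence; potency is read from the fitted curve at half-maximal effect; 0% = enzyme reaction without inhibitor and -100% = no enzyme wells; top concentration of the series not given in the record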
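Compounds were incubated with enzyme (final 15 nM) for 15 min at room temperature before substrate addition started the reaction. Fluorescence at 525 nm excitation, 598 nm emission was recorded immediately and after 30 minutes.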
* = called active by the depositor; ? = inconclusive; . = no result given; & = joins results of further samples; [ ] = remark or other dose.

no.	structure	TRPV1 PAM	PINK1 expr mod	D2 ag	D2 PAM	Six1-Eya2 inh	CtBP-E1A blk	Sfp PPTase inh
1	CN1CCN(C(=O)c2ccc(N(Cc3ccccc3Cl)S(C)(=O)=O)cc2)CC1	-12	1.6%	-0.3	-6	-5	0	5%
2	CS(=O)(=O)c1cnc(-c2cccnc2)nc1N	-8	5.7%	-2.7	-3	2	0	12%
3	CC12CCC(C(=O)Nc3cccc(NC(=O)C45CCC(C)(C(=O)O4)C5(C)C)n3)(OC1=O)C2(C)C	-3	0.0%	-2.3	2	1	0	6%
4	CN(C)CCSc1nc(-c2ccccc2)nc2c1CCC2	-5	-0.2%	3.0	-4	-11	.	7%
5	c1ccc(-c2nnc(N3CCN(c4ccccc4)CC3)nc2-c2ccccc2)cc1	-7	0.6%	3.3	-5	-5	2	7%
6	O=C(CN1C(=O)CSc2ccc(S(=O)(=O)N3CCOCC3)cc21)NCc1c(F)cccc1Cl	.	2.5%	-4.1	-15	4	-3	.
7	Cc1cc(C)c[n+](-c2nc3ccccc3nc2[N-]S(=O)(=O)c2ccc(Br)s2)c1	4	-1.4%	-4.7	-4	15	0	5%
8	CCN(CC)S(=O)(=O)c1ccc(N=NC2=C(O)CCCC2=O)cc1	13	-0.8%	-4.1	-3	2	.	2%
9	CNS(=O)(=O)c1cccc(C(=O)Nc2cccc(Cl)c2)c1	19	-2.0%	-1.6	-20	0	0	-1%
10	COc1ccc(/C=C/C(=O)NNC(=O)C(C)Oc2ccccc2F)cc1OC (stereo unspecified)	.	0.6%	-2.2	-3	-2	-8	.
11	CCOC(=O)C1(C)CCN1C(=O)c1ccc(C(F)(F)F)cc1 (stereo unspecified)	.	-0.2%	-1.2	-10	11	-9	.
12	Cc1nnc(NC(=O)c2ccc(S(=O)(=O)N3CC(C)OC(C)C3)cc2)o1 (stereo unspecified)	3	1.3%	-2.2	13	-28	-22	?
13	CN(C)C(=O)CN1C(=O)NC2(CCCc3ccccc32)C1=O (stereo unspecified)	-21	-0.3%	1.8	-12	-3	-11	12%
14	CCOC(=O)c1nnc(-c2ccc(C)cc2)nc1Oc1ccc(Cl)cc1Cl	.	-4.2%	-6.3	-7	-22	9	3%
15	COc1ccc(OC)c(CNC(=O)C2CCCN(C(=O)N(C)C)C2)c1 (stereo unspecified)	-8	2.8%[38.3 µM]	0.4	-6	2	-10	11%
16	CCn1cc(SCC(=O)Nc2cc(C)on2)c2ccccc21	-4	0.4%	-2.2	-5	2	4	-6%
17	NS(=O)(=O)c1ccc2nc(NC(=O)CS(=O)(=O)c3ccc(F)cc3)sc2c1	3	-1.1%	-0.6	-13	6	-1	-3%
18	COc1cccc(CNS(=O)(=O)c2c(C)[nH]c(C)c2C(=O)N2CCCC2)c1	-2	-0.9%	-0.4	-4	1	0	17%
19	Nc1nc(CN2CCCCCC2)nc(Nc2ccccc2)n1	-8	-0.7%	-0.4	-4	-28	-22	-13%
20	CCc1cc2c(=O)c(Oc3ccccc3F)c(C)oc2c(CN(C)C)c1O	3	1.8%	-4.7	-5	3	1	18%
21	Cc1ccc(CS(=O)(=O)c2ncc(Cl)c(C(=O)Nc3nnc(C(C)C)s3)n2)cc1	8	-1.2%&-0.2%	-4.0	-8	-29	-1	?
22	COc1ccc(/C=N/OCC(=O)Nc2nc3ccccc3s2)cc1	19	-2.1%	-3.0	-9	1	3	4%
23	Cc1ccc(-c2nnc(SCC(=O)N/N=C/c3ccc(C(=O)O)cc3)n2C2CCCCC2)cc1	0	-0.5%	-0.6	-8	13	1	41%[activator]
24	CN(CC(=O)Nc1cccc(F)c1)C(=O)C1CC(=O)N(Cc2ccco2)C1 (stereo unspecified)	9	-3.1%	-3.5	-67	-3	-1	.
25	O=C1CCCCN1CCC(=O)N1CCCC(N2CCN(c3ccccc3)CC2)C1 (stereo unspecified)	0	0.2%	-0.7	5	-2	22	8%
26	Cn1ccc2c(-c3ccc(F)nc3)cc3c(c21)C1CCC3C1 (stereo unspecified)	.	9.4%	-6.4	-3	-15	-8	.
27	CCC(C)NC(=O)CSc1nnc(-c2ccc(Cl)cc2)n1N (stereo unspecified)	-3	-0.1%	-4.5	-11	-3	-6	15%
28	O=c1c2ccccc2nc2n1C(CBr)CN2 (stereo unspecified)	-3	-1.8%	1.0	-1	0	1	8%
29	Brc1ccc(-c2ccccc2)cc1	2	5.2%	2.9	-3	9	-6	.
30	Cn1c(CNC(=O)CNS(=O)(=O)c2ccc(Br)cc2)cc(=O)n(C)c1=O	0	0.3%	-3.9	-9	-3	5	15%
31	C/C(CC(=O)Nc1ccc(N(C)C)cc1)=N\NC(=O)c1ccc([N+](=O)[O-])cc1Cl	6	2.1%	4.8	10	-15	3	-14%
32	COc1ccccc1/C=C/C(=O)c1c2c(c(C)[nH]c1=O)CCCC2	4	-8.1%[38.3 µM]	-1.3	-2	1	12	5%
33	CCCOC(=O)c1c(-c2ccc(C)cc2C)csc1NC(=O)C1C2CCC(O2)C1C(=O)O (stereo unspecified)	8	-1.2%	-6.2	2	-7	2	?
34	Cc1ccc(C)c(OCCC(=O)OCC(=O)NC2CC2)c1	-8	-3.7%	-4.3	-16	5	1	.
35	CCCN(CCC)S(=O)(=O)c1ccc(C(=O)Nc2nnc(-c3cc(OC)cc(OC)c3)o2)cc1	0	1.8%	-1.8	-13	-2	2	-1%
36	N#C/C(=C\c1c[nH]c2ccccc12)C(=O)NCC1CCCO1 (stereo unspecified)	-10	-1.1%	2.3	-4	-8	-5	11%
37	CC(C)NC(=O)c1sc2c(c1C(=O)Nc1cccnc1)CCCC2	3	-0.5%	-5.5	-19	-2	.	-8%
38	Cc1ccc([C@@H]2C3COCC=C3C(C#N)=C(N)C2(C#N)C#N)o1 (stereo partly specified)	5	0.0%[38.3 µM]	-0.3	7	-6	-11	-29%
39	COCCN(C(=O)COC(=O)/C=C/c1cccc(C(F)(F)F)c1)c1c(N)n(CC(C)C)c(=O)[nH]c1=O	.	-0.5%	-1.4	0	3	9	.
40	Nc1[nH]c(C(=O)c2ccccc2)c(-c2ccc(Cl)cc2Cl)c1C(=O)NCCc1c[nH]c2ccccc12	.	9.4%	.	.	-13	-10	.
41	O=C(c1ccc(OC2CCN(CCc3ccccc3)CC2)cc1)N1CCCCC1CCCO (stereo unspecified)	5	0.1%	-0.7	-40	-7	4	2%
42	Cc1ccc(N2C(=O)c3ccc(N)cc3C2=O)cc1C	3	?	-1.5	1	21	15	9%
43	CC(=O)c1ccc(N2CCN(S(=O)(=O)c3ccc4ccccc4c3)CC2)cc1	15	3.1%	5.2	1	-6	-1	.
44	Fc1ccccc1OCCCCN1CCCCC1	21	-1.1%	-1.6	-4	6	0	-16%
45	CCCCn1c(SCC(=O)NC2CCS(=O)(=O)C2)nc2ccccc2c1=O (stereo unspecified)	-7	0.7%	-0.6	11	1	2	-15%
46	CCc1ccc(N=C2NC(=O)/C(=C/c3ccc(OCC(=O)O)cc3)S2)cc1	7	4.8%	-4.3	-5	-2	6	15%
47	COC(=O)[C@@H](NCc1cccc(CN[C@H](C(=O)OC)C(C)C)c1)C(C)C	7	2.7%	-3.1	-9	9	10	24%
48	CC1(C)CCc2c([nH]c3ccccc3c2=O)O1	7	-0.7%	-10	-29	1	-20	12%
49	Cc1cc(NC(=O)c2cc(-c3ccccn3)nc3ccccc23)no1	-4	3.4%[38.3 µM]	-1.1	-6	-19	9	10%
50	O=C(NCCc1ccccc1)Oc1ccc(Cl)cc1	4	2.9%	-3.5	-24	5	.	5%

By substructure: those above with a thiophene ring, fused or not (three)
no.	structure	TRPV1 PAM	PINK1 expr mod	D2 ag	D2 PAM	Six1-Eya2 inh	CtBP-E1A blk	Sfp PPTase inh
7	Cc1cc(C)c[n+](-c2nc3ccccc3nc2[N-]S(=O)(=O)c2ccc(Br)s2)c1	4	-1.4%	-4.7	-4	15	0	5%
33	CCCOC(=O)c1c(-c2ccc(C)cc2C)csc1NC(=O)C1C2CCC(O2)C1C(=O)O (stereo unspecified)	8	-1.2%	-6.2	2	-7	2	?
37	CC(C)NC(=O)c1sc2c(c1C(=O)Nc1cccnc1)CCCC2	3	-0.5%	-5.5	-19	-2	.	-8%

(further entries)
no.	structure	TRPV1 PAM	PINK1 expr mod	D2 ag	D2 PAM	Six1-Eya2 inh	CtBP-E1A blk	Sfp PPTase inh
51	Cc1ccc(S(=O)(=O)N2C[C@]3(O)C[C@@H]4C(=O)N(c5ccccc5)C(=O)[C@@H]4C[C@]3(OC(=O)NCc3ccco3)C2)cc1	.	-1.2%	0.5	.	-4	-2	.
52	CCOC(=O)C(=NCC1CCCO1)NNc1cc(Cl)ccc1Cl (stereo unspecified)	14	25%	-0.1	-7	-3	-10	-13%
53	CCn1c(C)nc2c1C(=O)c1ccccc1C2=O	-8	-1.4%	-1.5	-13	-27	-29	0%
54	COc1cc(C#Cc2c(-c3cncn3C)n(C)c3ccc(-c4ccc(CN5CCOCC5)cc4)cc23)cc(OC)c1	.	2.0%	3.2	-9	-22	-23	.
55	COc1cc(/C=N/NC(=O)C(=O)/C=C2\NC3(CCCC3)Cc3ccccc32)ccc1O	-9	-2.9%	3.0	23	?	-28	12%
56	CC1NC2(C(=O)N(Cc3ccccc3)c3ccccc32)C2C(=O)N(c3ccccc3)C(=O)C12 (stereo unspecified)	-14	-0.1%	0.1	-5	-1	4	2%
57	CC(=O)c1cccc(NC(=O)CSc2nc(=O)n(CCCN3CCOCC3)c3c2CCC3)c1	11	2.1%	-1.6	9	-4	-24	.
58	COc1cc(CNCc2ccccn2)ccc1OCc1ccc(Cl)cc1	-18	6.4%	-1.8	-24	?	?	13%
59	O=C(NCCCCc1ccccc1)c1cccc(NC(=O)C2CCCC2)c1	.	-0.6%	1.8	.	-2	-1	.
60	O=c1c2ccccc2ncn1CCCCOc1ccccc1F	12	2.3%	-0.9	-1	6	10	0%
61	Cc1ccc(OCC(=O)NC2CCCC2)c(C)c1	5	-1.3%	2.7	-6	3	7	21%
62	CCCNc1ncc2c(=O)[nH][nH]c(=O)c2n1	.	1.9%	4.5	-4	-28	-25	.
63	CC(=O)Nc1cc(C(=O)OC(C(=O)c2ccccc2)c2ccccc2)ccc1C (stereo unspecified)	5	3.9%	2.4	-15	2	3	-8%
64	CC(SC#N)C(=O)C12CC3CC(CC(C3)C1)C2 (stereo unspecified)	?	-1.5%	-0.8	4	-6	3	-2%
65	COc1cc(OC)cc(-c2c(-c3ccc(F)cc3)c3cc(-c4ccc5[nH]ccc5c4)ccc3n2C)c1	3	8.0%	-5.4	-1	-4	-10	.
